High-throughput results from PubChem BioAssay.
HCMV UL50-53 inh = inhibitors of HCMV UL50-UL53 interaction, biochemical, HTRF. normalized percent inhibition. HCMV UL50-UL53 nuclear egress complex (human cytomegalovirus). 0.15% of 190,000 active. inhibition, % (test concentration not listed);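 active = both replicates at 50% or more, plus weaker picks with an unusually low signal ratio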;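 also: stock transfer was 100 nL into about 20 µL; 0% = negative control wells and 100% = wells with untagged competitor protein; inactives centre near -12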
Sa growth 42C = S. aureus growth inhibition at 42 and 30 °C, primary screen, LtaS inhibitor project, RN4220, two temperatures; OD600, 20 h, 42 °C; active compounds read low; relative growth, % (no concentration beside the values); 0.53% of 170,000 active;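 active = growth at 42 °C up to 50% and 20 or more points under that at 30 °C, or under 10% at both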;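 also: 300 nL library stock went into each well; scaled to the means of positive and negative controls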
GIV Gai3 FP = inhibitors of GIV peptide binding to Galpha-i3, primary screen, biochemical, fluorescence polarization, FITC-GIV GBA peptide, rat Galphai3. percent of control (FP), % (concentration not given with the values). 0.42% of 210,000 active. Guanine nucleotide-binding protein G(i) subunit alpha-3 (Rattus norvegicus), P08753. 90 min; active compounds read low; scaled: aluminum fluoride 0%, vehicle 100%;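 active = replicate mean at 85% of control or lower, very high polarization wells dropped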;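 also: wells of about 15 µL received 100 nL stock; the first replicate is given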
Target sequence (P08753 whole entry, looked up): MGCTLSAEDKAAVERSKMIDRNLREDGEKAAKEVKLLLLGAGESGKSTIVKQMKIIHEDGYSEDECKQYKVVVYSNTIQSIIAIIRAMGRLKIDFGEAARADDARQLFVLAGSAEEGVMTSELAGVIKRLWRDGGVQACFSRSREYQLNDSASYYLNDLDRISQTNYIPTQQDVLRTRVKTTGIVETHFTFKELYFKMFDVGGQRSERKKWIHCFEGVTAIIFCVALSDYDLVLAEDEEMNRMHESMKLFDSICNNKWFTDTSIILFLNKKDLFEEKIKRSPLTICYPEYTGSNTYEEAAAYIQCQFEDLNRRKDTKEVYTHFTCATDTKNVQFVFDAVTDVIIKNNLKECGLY
Sa growth 42C second temp = recorded beside Sa growth 42C, whose call it bears; relative growth, %; measured here: growth at 30 °C;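 optical density after 20 h as mean of two plates; 100% = untreated growth and lower means inhibition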
An asterisk follows results filed as active; . = not tested or not shown; & = joins results of further samples.

Letter code: A = HCMV UL50-53 inh; B = Sa growth 42C; C = Sa growth 42C second temp; D = GIV Gai3 FP
Cc1noc(C)c1S(=O)(=O)NC(C)c1ccccc1 (stereo unspecified)
  A: .	B: 104	C: 83	D: 96
CCOC(=O)c1cccc(NC(=O)c2ccc3c(c2)nnn3C2CCCC2)c1
  A: .	B: 114	C: 86	D: 101
N#CCCN(Cc1ccncc1)C(=S)NC1CC2C=CC1C2 (stereo unspecified)
  A: -28	B: 91	C: 88	D: 101
Cc1cc(=O)oc2cc(NC(=O)CSCC(=O)O)ccc12
  A: -23	B: 84	C: 87	D: 103
Cc1ccc(-c2nnc(C3CCN(S(=O)(=O)c4ccc(Cl)s4)CC3)o2)cc1
  A: -3	B: 104	C: 93	D: 104
COc1cc(C=C2C(=O)NC(=O)NC2=O)cc(Br)c1OCc1c(C)no[n+]1[O-]
  A: 7	B: 96	C: 85	D: .
CC(=O)Nc1ccc(OCc2ccc3c(c2)OCO3)cc1
  A: -30	B: 116	C: 97	D: 108
O=C(NC1CCCCC1)c1ccc(CNc2ccccc2)o1
  A: -21	B: 111	C: 68	D: 103
CN1C(=O)/C(=C/c2cn(CC(=O)NCc3ccco3)c3ccccc23)C(=O)NC1=S
  A: 5	B: 93	C: 61	D: 105
CCCN1C(=O)/C(=C/c2c(NCC)nc3ccccn3c2=O)SC1=S
  A: -24	B: 93	C: 74	D: -75*
Clc1ccc(Cl)c(SCCc2ccncc2)c1
  A: -8	B: 64	C: 42	D: 94
O=C1C(=Cc2ccccc2)C(=O)N(c2ccccc2)C(=O)N1c1ccccc1
  A: .	B: 112	C: 80	D: 104
COC(=O)C(C(=O)Nc1ccccc1C)C1CCCCCC1 (stereo unspecified)
  A: -8	B: 110	C: 90	D: 99
N#C/C(=C\Nc1cccc(Cl)c1)S(=O)(=O)Cc1ccco1
  A: -6	B: 85	C: 73	D: 107
Cc1ccc(CN(Cc2cccn2-c2nnc(N3CCCC3=O)s2)C(=O)Nc2ccccc2C(F)(F)F)cc1
  A: 9	B: 105	C: 94	D: 97
O=C(Cn1cnc2nc3c(cc2c1=O)CCCC3)Nc1ccc(F)cc1F
  A: -19	B: .	C: .	D: 108
COc1ccc(OCC(=O)O)cc1
  A: -8	B: 91	C: 86	D: .
CCSC(=S)c1c(C)[nH]n(-c2ccccc2)c1=O
  A: -58	B: 76	C: 25	D: 96
Cc1ccccc1NC(=O)CCn1nc(-c2ccc(Cl)cc2)c2ccccc2c1=O
  A: -43	B: 101	C: 104	D: 110
O=C1CCc2ccc(NC(=O)C3CC3)cc2N1
  A: -28	B: 91	C: 90	D: 103
CCCN(C(=O)C(=O)Nc1ccc2nc3n(c(=O)c2c1)CCCCC3)c1ccc(OCC)cc1
  A: -16	B: 108	C: 85	D: 98
CCc1nnc(SCc2cc(=O)n3ccsc3n2)n1C
  A: -21	B: 106	C: 97	D: 95
Oc1ccc(Br)cc1C=NCc1ccccc1
  A: -11	B: 101	C: 64	D: .
FC(F)(F)c1[nH]nc(-c2ccccc2)c1C12CC3CC(CC(C3)C1)C2
  A: -3	B: 103	C: 89	D: .
Cc1nn(-c2ccc(-c3noc(C4CC4)n3)cc2)cc1C(=O)Nc1ccc2c(c1)OCCO2
  A: -25	B: .	C: .	D: 102
COc1ccc(-n2c(SCC(=O)c3cc4ccccc4o3)nc3ccccc32)cc1
  A: -38	B: 96	C: 88	D: .
Cc1cc(N)n(-c2ccc(Cl)cc2)n1
  A: 11	B: 100	C: 99	D: .
NC(=S)C(=S)N1CCOCC1
  A: 24	B: 81	C: 105	D: 104
CC(C)C(=O)NC1CC(=O)N(c2ccc3c(c2)OCCO3)C1 (stereo unspecified)
  A: .	B: 102	C: 99	D: 96&97
O=c1oc2cc(S(=O)(=O)N3CCOCC3)ccc2n1Cc1noc(C2CC2)n1
  A: -24	B: .	C: .	D: 110

The list goes on (4 carried over from the part before).
Letter code: A = HCMV UL50-53 inh; B = Sa growth 42C; C = Sa growth 42C second temp; D = GIV Gai3 FP
Cc1cc(N)n(-c2ccc(Cl)cc2)n1
  A: 11	B: 100	C: 99	D: .
NC(=S)C(=S)N1CCOCC1
  A: 24	B: 81	C: 105	D: 104
CC(C)C(=O)NC1CC(=O)N(c2ccc3c(c2)OCCO3)C1 (stereo unspecified)
  A: .	B: 102	C: 99	D: 96&97
O=c1oc2cc(S(=O)(=O)N3CCOCC3)ccc2n1Cc1noc(C2CC2)n1
  A: -24	B: .	C: .	D: 110
CCc1c(C)nc(N)n2c(SCc3ccc(C(F)(F)F)cc3)nnc12
  A: 3	B: 84	C: 91	D: 97
Cc1ccc2c(CC(=O)Nc3cccc(Cl)c3C)coc2c1
  A: -9	B: 115	C: 92	D: 104
CCOC(=O)C1=C(CS(=O)(=O)c2cccc(C(F)(F)F)c2)NC(=O)NC1c1cccc(OC)c1 (stereo unspecified)
  A: 5	B: 98	C: 95	D: 108
Cc1nc(-c2cnccn2)sc1C(=O)NCc1ccncc1
  A: -44	B: 93	C: 85	D: 101
COc1ccccc1NC(=O)COC(=O)CCC1CCCC1
  A: 14	B: 118	C: 95	D: .
Cc1nc(SCC(=O)Nc2ccc(-c3ccccc3)cc2)c2c3c(sc2n1)CCC3
  A: .	B: 101	C: 88	D: 105
COc1cc(OC)cc(N2C(=O)N(CC(=O)c3ccc(F)cc3)c3ccccc3S2(=O)=O)c1
  A: .	B: 134	C: 91	D: 103
COCCCNc1oc(-c2ccc(COc3ccc(Cl)cc3)o2)nc1C#N
  A: -35	B: 99	C: 85	D: 101
COCCNc1ncnc2c1sc1nc(N3CCOCC3)c3c(c12)CCC3
  A: -4	B: 111	C: 89	D: 101
CCOC(=O)N1CCC(=NNc2ccc(Cl)c(C(=O)O)c2)CC1
  A: -10	B: 107	C: 86	D: .
Cc1cccc(CN2CCN(CC(=O)NCCc3ccc(Cl)cc3)C2=O)c1
  A: -13	B: 110	C: 75	D: 104
O=C(CSc1nc2ccccc2c(=O)[nH]1)c1c[nH]c2ccccc12
  A: -8	B: .	C: .	D: 107
CCSc1n[nH]c(-c2ccc(Cl)cc2)n1
  A: -3	B: 115	C: 79	D: 99
CCc1ccc(-n2c(N3CCN(c4ccccc4)CC3)nc3ccccc3c2=O)cc1
  A: -18	B: 78	C: 89	D: 105
CCOc1ccc(/C=C/C(=O)Nc2sc3c(c2C(=O)OC)C(C(=O)OC)CC3)cc1 (stereo unspecified)
  A: -27	B: 96	C: 90	D: 102
COCCN1C(=O)c2[nH]nc(-c3cc(C)ccc3O)c2C1c1ccc(C(C)C)cc1 (stereo unspecified)
  A: -30	B: 113	C: 92	D: 104
Cc1cccc(CN2C(=O)CSc3ccc(C(=O)NCc4c(F)cc(F)cc4F)cc32)c1
  A: .	B: 98	C: 95	D: 101
CCOC(=O)c1sc(SC)nc1NS(=O)(=O)c1cc(C(F)(F)F)cc(C(F)(F)F)c1
  A: -8	B: 91	C: 85	D: 100
CN1CCC(N(C)C(=O)c2ccc3nccnc3c2)CC1
  A: -24	B: 105	C: 108	D: 103
O=C(Nc1c(C(=O)Nc2ccc3c(c2)OCO3)oc2ccccc12)c1ccco1
  A: 22	B: 115	C: 110	D: 107
COc1ccc(C(=O)NC2(C(F)(F)F)C(=O)NC(C)=C2C#N)cc1 (stereo unspecified)
  A: -13	B: 105	C: 94	D: 103
COc1ccc2cc3c(N)nn(C(=O)c4cccc(Cl)c4)c3nc2c1
  A: -28	B: .	C: .	D: 97
CC(=O)N1CCOc2cc(S(=O)(=O)N(C)C3CCCC(C)C3C)ccc21 (stereo unspecified)
  A: .	B: 105	C: 78	D: 99
Cc1ccc(-n2c(C)cc(/C=C(/C#N)c3ccccc3)c2C)cc1
  A: 16	B: 83	C: 111	D: 105
O=C(CSc1ncn[nH]1)NC1CCCCC1
  A: -28&0	B: 109	C: 87	D: 108
Cn1c2c(c(=O)c3ccccc31)CCCC2
  A: -3	B: 94	C: 66	D: 99
CCc1nc2ccc(C(=O)NCCc3ccccc3OC)cc2nc1CC
  A: .	B: 92	C: 94	D: 94
Cc1ccc(-n2c3c(cc(-c4nc(-c5ccc(Cl)cc5)cs4)c2=O)C(=O)CC(C)(C)C3)cc1C
  A: 4	B: 92	C: 94	D: 100
NC1=NC(=O)C2(COC(c3ccccc3Cl)OC2)S1 (stereo unspecified)
  A: -6	B: 96	C: 96	D: 105
c1ccc(-n2nnnc2OCCOc2nnnn2-c2ccccc2)cc1
  A: 4	B: 97	C: 87	D: 99
O=C(c1ccc(Oc2ccccc2)cc1)N1CCN(c2ccccn2)CC1
  A: -7	B: 94	C: 55	D: .
O=C(c1ccc(N2CCCC2)c(S(=O)(=O)N2CCCC2)c1)N1CCN(c2ccccc2)CC1
  A: -7	B: .	C: .	D: 105
COc1ccc(CCNc2nc3c(-c4cccc(C(F)(F)F)c4)nnn3c3ccccc23)cc1OC
  A: -33	B: 99	C: 85	D: 102
CCOC(=O)Nc1c(C(=O)OCC)[nH]c2ccc(F)cc12
  A: -3	B: 104	C: 96	D: 107
CCc1ccc(-n2c(SCC(=O)NC3CC3)nc3ccccc3c2=O)cc1
  A: -16	B: 80	C: 91	D: .
C/C(=N/OC(=O)c1ccccc1)c1cccs1
  A: -38	B: 106	C: 69	D: 106
CCOC(=O)N1CCC2(CC1)C(C#N)=C(N)Oc1c2c(C)nn1-c1cccc(Cl)c1
  A: -3	B: 112	C: 66	D: 111
O=C(O)c1cc(-c2cccs2)nc2cc3c(cc12)OCCO3
  A: -71	B: 96	C: 87	D: 99
CCOC(=O)c1c[nH]c2c(C)c(Cl)ccc2c1=O
  A: .	B: 104	C: 91	D: 101
CCN(CC(=O)Nc1ccc2c(c1)OCCO2)c1nc(-c2cccnc2)nc2ccccc12
  A: -15	B: 104	C: 93	D: .
Cc1nnc(Nc2ccc(Cl)cc2)[nH]c1=O
  A: -20	B: .	C: .	D: 97
COc1ccc(OCC(=O)Nc2ncccn2)cc1
  A: -20	B: 102	C: 93	D: .
CSc1nc(COc2ccc(C(C)(C)C)cc2)nc(N)c1C#N
  A: -25	B: 122	C: 90	D: 99
CN(C)c1ncnc2c1c(-c1ccccc1)cn2-c1ccc(F)cc1
  A: -29	B: .	C: .	D: 105
CCOC(=O)c1cccc(NC2c3ncccc3C(=O)N2c2ccc(OC)cc2)c1 (stereo unspecified)
  A: -13	B: .	C: .	D: 110

4 records drawn at random from those above, as already listed:
Letter code: A = HCMV UL50-53 inh; B = Sa growth 42C; C = Sa growth 42C second temp; D = GIV Gai3 FP
CCOC(=O)Nc1c(C(=O)OCC)[nH]c2ccc(F)cc12
  A: -3	B: 104	C: 96	D: 107
CCc1ccc(-n2c(SCC(=O)NC3CC3)nc3ccccc3c2=O)cc1
  A: -16	B: 80	C: 91	D: .
CCN(CC(=O)Nc1ccc2c(c1)OCCO2)c1nc(-c2cccnc2)nc2ccccc12
  A: -15	B: 104	C: 93	D: .
C/C(=N/OC(=O)c1ccccc1)c1cccs1
  A: -38	B: 106	C: 69	D: 106

(list continues)
Letter code: A = HCMV UL50-53 inh; B = Sa growth 42C; C = Sa growth 42C second temp; D = GIV Gai3 FP
CCOC(=O)C1CCN(CCC(C)(C)c2ccc(C)o2)CC1
  A: -13	B: 99	C: 110	D: 102
COc1ccc(CNC(=O)c2cc3oc4ccccc4c3n2C)cc1OC
  A: 2	B: 116	C: 99	D: 99
CCCOc1ccc(S(=O)(=O)n2cc(Br)c(=O)[nH]c2=O)cc1
  A: -9	B: 68	C: 57	D: 92
Cc1ccc(-c2cc(C(=O)NCC3CCCO3)[nH]n2)cc1C (stereo unspecified)
  A: -18	B: 101	C: 90	D: 107
O=C(Cn1ncc2ccsc2c1=O)N1CCC(Cc2ccccc2)CC1
  A: 0	B: 109	C: 77	D: 105
O=C(CN1C(=O)C(c2ccccc2)Oc2cccnc21)NCc1ccccc1 (stereo unspecified)
  A: -13	B: 99	C: 101	D: 113
COc1cccc(-c2noc(COc3ccc(C(C)(C)C)cc3)n2)c1
  A: -12	B: 104	C: 89	D: 103
O=C(Cc1c(C(=O)O)[nH]c2ccccc12)Nc1cccc(Cl)c1
  A: 1	B: 111	C: 84	D: 103
Cc1nc2ccccc2nc1N1CCC(C)CC1
  A: -15	B: 108	C: 44	D: 100
Brc1ccc(CSc2nncn2-c2ccccc2)cc1
  A: -21	B: 130	C: 73	D: .
Cc1ccc2cc(-c3noc(CCC(=O)NC4CCCC4)n3)c(=O)[nH]c2c1
  A: -33	B: .	C: .	D: 104
Nc1[nH]ncc1-c1ccc(Cl)cc1
  A: -21	B: .	C: .	D: 106

An excerpt from above, limited to Sa growth 42C second temp and HCMV UL50-53 inh.
| SMILES | Sa growth 42C second temp | HCMV UL50-53 inh |
| --- | --- | --- |
| O=C(NC1CCCCC1)c1ccc(CNc2ccccc2)o1 | 68 | -21 |
| CN1C(=O)/C(=C/c2cn(CC(=O)NCc3ccco3)c3ccccc23)C(=O)NC1=S | 61 | 5 |
| CCCN1C(=O)/C(=C/c2c(NCC)nc3ccccn3c2=O)SC1=S | 74 | -24 |
| Clc1ccc(Cl)c(SCCc2ccncc2)c1 | 42 | -8 |
| O=C1C(=Cc2ccccc2)C(=O)N(c2ccccc2)C(=O)N1c1ccccc1 | 80 | . |
| COC(=O)C(C(=O)Nc1ccccc1C)C1CCCCCC1 (stereo unspecified) | 90 | -8 |
| N#C/C(=C\Nc1cccc(Cl)c1)S(=O)(=O)Cc1ccco1 | 73 | -6 |
